Screening data (PubChem)
STAT3 SMM = binders of human STAT3; P40763; 17,000 compounds, 0.2% hits; calls only; AID 624138; Small molecule microarray, His-STAT3 binding, anti-His fluorescence;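 active = compounds whose four printed spots each show fluorescence over background unusually high for their array block, chance value under 7%; compounds were printed on slides so no solution concentration is given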;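 also: about 2 pmol printed per array spot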
ID4 SMM = ID4 (human) binding; P47928; small molecule microarray, Flag-ID4 binding, fluorescence F/B; calls only; 31,000 compounds, 1.2% hits; AID 624137;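 active = spot signal over background at p below 0.07 in all four prints; compounds were printed on slides so no solution concentration is given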;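 also: a binder raises fluorescence above local background on the spot; about 2 pmol printed per array spot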
Target sequence (P47928 whole entry, looked up): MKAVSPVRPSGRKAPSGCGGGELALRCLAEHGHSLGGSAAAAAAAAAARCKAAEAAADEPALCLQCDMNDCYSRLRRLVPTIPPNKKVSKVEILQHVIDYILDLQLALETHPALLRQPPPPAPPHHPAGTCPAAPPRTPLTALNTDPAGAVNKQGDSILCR
p53 mut binder = mutant p53 (human) binding. small molecule microarray binding, anti-GST fluorescence. calls only. 17,000 compounds, 0.4% hits. AID 624136;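 active = compounds whose four printed spots each glow above background more than chance allows, each with a p-value under 7%; compounds were printed on slides so no solution concentration is given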;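 also: about 2 pmol printed per array spot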
Myc binder = binders of human c-Myc; P01106; small molecule microarray, His-c-Myc binding, anti-His fluorescence; calls only; 17,000 compounds, 1.5% hits; AID 624141;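 active = spot fluorescence over background with P-value below 7% in all four replicate spots, showing protein binding; compounds were printed on slides so no solution concentration is given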;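 also: score is binary with 100 for all four spots passing and 0 otherwise; about 2 pmol printed per array spot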
Target sequence (P01106 whole entry, looked up): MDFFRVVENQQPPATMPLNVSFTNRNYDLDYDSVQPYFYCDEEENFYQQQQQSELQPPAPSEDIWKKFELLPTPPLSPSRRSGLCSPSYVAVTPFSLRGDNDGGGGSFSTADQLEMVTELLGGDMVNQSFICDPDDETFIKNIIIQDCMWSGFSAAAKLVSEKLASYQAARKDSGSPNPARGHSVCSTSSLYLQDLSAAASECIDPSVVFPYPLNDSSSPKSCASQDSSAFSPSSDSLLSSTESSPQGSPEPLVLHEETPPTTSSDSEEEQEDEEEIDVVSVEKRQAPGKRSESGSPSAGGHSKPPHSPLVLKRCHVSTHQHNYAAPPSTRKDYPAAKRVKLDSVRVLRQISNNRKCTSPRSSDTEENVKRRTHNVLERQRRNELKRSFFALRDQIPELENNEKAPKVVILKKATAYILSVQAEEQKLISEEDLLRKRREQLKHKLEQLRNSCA
Calls only; i = inactive; nt = not tested or not shown; + = active, no number.

Each structure is followed by: p53 mut binder | STAT3 SMM | Myc binder | ID4 SMM
> C[C@H]1CN([C@@H](C)CO)C(=O)c2cc(NS(=O)(=O)c3ccc(F)cc3)ccc2O[C@@H]1CN(C)C(=O)Nc1ccc(F)cc1
  i | i | i | nt
> CCN(CC)CCNc1ncnc2sc3c(c12)CC(C)(C)OC3
  i | i | i | i
> Cc1noc(C)c1NC(=O)N(C)C[C@H]1Oc2c(NC(=O)c3ccncc3)cccc2C(=O)N([C@@H](C)CO)C[C@@H]1C
  i | i | i | i
> COc1ccc(CN(C)C[C@H]2Oc3ccc(NS(=O)(=O)c4ccc(F)cc4)cc3C(=O)N([C@@H](C)CO)C[C@@H]2C)cc1
  i | i | i | nt
> CC(C)NC(=O)Nc1ccc2c(c1)C(=O)N([C@@H](C)CO)C[C@@H](C)[C@@H](CN(C)C(=O)Cc1ccccc1)OCCCC[C@@H](C)O2
  i | i | i | i
> C[C@@H]1CN([C@@H](C)CO)C(=O)c2cc(NC(=O)Nc3ccc4c(c3)OCO4)ccc2O[C@@H](C)CCCCO[C@H]1CN(C)Cc1ccccc1
  i | i | i | i
> CNC[C@H]1Oc2ccc(NC(=O)NC3CCCCC3)cc2C(=O)N([C@@H](C)CO)C[C@H]1C
  i | i | i | i
> C[C@@H]1CN([C@H](C)CO)C(=O)c2cc(N(C)C)ccc2O[C@@H]1CN(C)S(=O)(=O)c1cccs1
  i | i | i | i
> COc1ccccc1C1C(C(=O)Nc2ccc(C)cc2C)=C(C)Nc2nnnn21 (stereo unspecified)
  i | i | i | i
> COc1ccccc1CCNC(=O)Nc1cccc([N+](=O)[O-])c1
  i | i | i | i
> CC(=O)n1cc([C@H]2C=C(C(=O)Nc3ccccc3)O[C@@H](OCCCCO)C2)c2ccccc21
  i | i | i | nt
> C[C@H](CO)N1C[C@H](C)[C@H](CN(C)Cc2ccc(C(F)(F)F)cc2)Oc2c(NC(=O)C3CCOCC3)cccc2C1=O
  i | i | i | i
> C[C@@H]1CN([C@@H](C)CO)C(=O)Cc2cc(NC(=O)NC3CCCCC3)ccc2O[C@H]1CN(C)S(=O)(=O)c1cn(C)cn1
  i | i | i | i
> C[C@H]1CN([C@@H](C)CO)C(=O)c2cc(NC(=O)Cc3cn(C)c4ccccc34)ccc2O[C@@H]1CN(C)C(=O)NC1CCCCC1
  i | i | i | i
> C[C@@H]1CN([C@H](C)CO)C(=O)c2cccc(NC(=O)NC3CCCCC3)c2O[C@@H]1CN(C)C(=O)Nc1cccc2ccccc12
  i | i | i | i

Next part; the last 2 above are carried over.
Each structure is followed by: p53 mut binder | STAT3 SMM | Myc binder | ID4 SMM
> C[C@H]1CN([C@@H](C)CO)C(=O)c2cc(NC(=O)Cc3cn(C)c4ccccc34)ccc2O[C@@H]1CN(C)C(=O)NC1CCCCC1
  i | i | i | i
> C[C@@H]1CN([C@H](C)CO)C(=O)c2cccc(NC(=O)NC3CCCCC3)c2O[C@@H]1CN(C)C(=O)Nc1cccc2ccccc12
  i | i | i | i
> C[C@H]1CN([C@@H](C)CO)C(=O)c2cc(NS(C)(=O)=O)ccc2O[C@@H]1CN(C)C(=O)NC1CCCCC1
  i | i | i | i
> Cc1ccc(S(=O)(=O)Nc2cccc3c2O[C@H](CN(C)C(=O)Nc2ccc4c(c2)OCO4)[C@@H](C)CN([C@@H](C)CO)C3=O)cc1
  i | i | i | nt
> C[C@H]1CN([C@@H](C)CO)C(=O)c2cc(NC(=O)NC3CCCCC3)ccc2O[C@@H]1CN(C)Cc1ccc(C(=O)O)cc1
  i | i | i | i
> Cc1noc(C)c1NC(=O)N(C)C[C@H]1OCCCC[C@@H](C)Oc2ccc(NS(=O)(=O)c3cccs3)cc2C(=O)N([C@H](C)CO)C[C@H]1C
  i | i | i | +
> C[C@@H]1CN([C@H](C)CO)C(=O)Cc2cc(N(C)C)ccc2O[C@@H]1CN(C)Cc1ccc(C(=O)O)cc1
  i | i | i | i
> COc1ccc(S(=O)(=O)Nc2cccc3c2O[C@H](CN(C)S(=O)(=O)c2cccs2)[C@H](C)CN([C@H](C)CO)C3=O)cc1
  i | i | i | i
> COc1ccc(C)cc1S(=O)(=O)N1CCCC(C(N)=O)C1 (stereo unspecified)
  i | i | i | i
> C[C@@H]1CN([C@@H](C)CO)C(=O)c2cc(NC(=O)c3ccncc3)ccc2O[C@@H](C)CCCCO[C@@H]1CN(C)C(=O)Cc1ccccc1
  i | i | i | i
> C[C@H](CO)N1C[C@H](C)[C@H](CN(C)Cc2ccncc2)Oc2c(NC(=O)Nc3ccc(F)cc3)cccc2C1=O
  i | i | i | nt
> CC(C)NC(=O)Nc1ccc2c(c1)CC(=O)N([C@@H](C)CO)C[C@@H](C)[C@@H](CN(C)S(=O)(=O)c1ccccc1)O2
  i | i | i | i
> C[C@H](CO)N1C[C@H](C)[C@@H](CN(C)S(=O)(=O)c2ccccc2)OCCCC[C@H](C)Oc2ccc(N(C)C)cc2C1=O
  + | i | i | i
> C[C@@H]1CN([C@@H](C)CO)C(=O)c2cc(N(C)C)ccc2O[C@H]1CN(C)S(=O)(=O)c1cn(C)cn1
  i | i | i | i
> COc1ccc(S(=O)(=O)N(C)C[C@H]2Oc3ccc(NC(=O)Cc4ccccc4)cc3C(=O)N([C@@H](C)CO)C[C@@H]2C)cc1
  i | i | i | i
> C[C@@H]1CN([C@H](C)CO)C(=O)c2cc(NC(=O)C3CC3)ccc2O[C@H]1CN(C)C
  i | i | i | i
> C[C@@H]1CCCCO[C@H](CN(C)C(=O)C2CCCCC2)[C@@H](C)CN([C@@H](C)CO)C(=O)c2cc(NC(=O)Nc3ccccc3)ccc2O1
  i | i | + | i

Three entries from above, arranged by count of non-hydrogen atoms, falling.
Each structure is followed by: p53 mut binder | STAT3 SMM | Myc binder | ID4 SMM
> C[C@@H]1CN([C@@H](C)CO)C(=O)c2cc(NC(=O)c3ccncc3)ccc2O[C@@H](C)CCCCO[C@@H]1CN(C)C(=O)Cc1ccccc1
  i | i | i | i
> C[C@H](CO)N1C[C@H](C)[C@H](CN(C)Cc2ccncc2)Oc2c(NC(=O)Nc3ccc(F)cc3)cccc2C1=O
  i | i | i | nt
> C[C@H]1CN([C@@H](C)CO)C(=O)c2cc(NS(C)(=O)=O)ccc2O[C@@H]1CN(C)C(=O)NC1CCCCC1
  i | i | i | i

Next section
Each structure is followed by: p53 mut binder | STAT3 SMM | Myc binder | ID4 SMM
> Cc1noc(C)c1S(=O)(=O)Nc1ccc2c(c1)C(=O)N([C@H](C)CO)C[C@H](C)[C@@H](CN(C)C(=O)CCC(F)(F)F)OCCCC[C@H](C)O2
  i | i | i | i
> C[C@H]1CN([C@@H](C)CO)C(=O)c2cc(NC(=O)NC3CCCCC3)ccc2O[C@H]1CN(C)C
  i | i | i | i
> COc1ccc(S(=O)(=O)N(C)C[C@@H]2Oc3c(NC(=O)NC4CCCCC4)cccc3C(=O)N([C@H](C)CO)C[C@H]2C)cc1
  i | i | i | i
> O=C(NCc1ccco1)c1cccnc1-c1nc2ccccc2s1
  i | i | i | i
> COc1ccc(NC(=S)NCCc2ccccc2OC)c(OC)c1
  i | i | i | +
> C[C@@H]1CC[C@]2(C)[C@H](CC[C@@H](O)[C@]2(C)O)[C@@]1(C)CC/C(=C/CO)CO
  i | i | i | nt
> COc1ccc(S(=O)(=O)Nc2cccc3c2O[C@@H](CN(C)S(=O)(=O)c2ccc(F)cc2)[C@H](C)CN([C@@H](C)CO)C3=O)cc1
  i | i | i | i
> C[C@H](CO)N1C[C@H](C)[C@H](CN(C)C(=O)Nc2ccc3c(c2)OCO3)Oc2c(NC(=O)C3CCOCC3)cccc2C1=O
  i | i | i | i
> COc1ccc(CN(C)C[C@H]2OCCCC[C@@H](C)Oc3ccc(NC(=O)Nc4c(C)noc4C)cc3C(=O)N([C@H](C)CO)C[C@@H]2C)cc1
  i | i | i | i
> C[C@@H]1C=C(C(=O)N2CCN(Cc3ccc4c(c3)OCO4)CC2)O[C@H](OCc2ccc(CO)cc2)C1
  i | i | i | i
> C[C@@H]1CN([C@H](C)CO)C(=O)c2cccc(NS(=O)(=O)c3cccs3)c2O[C@@H]1CN(C)Cc1ccc(C(=O)O)cc1
  i | i | i | i
> C[C@@H]1CN([C@H](C)CO)C(=O)c2cccc(NS(C)(=O)=O)c2O[C@@H]1CN(C)C(=O)Nc1ccc(C(F)(F)F)cc1
  i | i | i | i
> COc1ccc(C(=O)CCC(=O)Nc2cccnc2)c(OC)c1
  i | i | i | i
> C[C@H](CO)N1C[C@H](C)[C@@H](CN(C)Cc2ccncc2)OCCCC[C@H](C)Oc2ccc(NC(=O)Nc3ccccc3)cc2C1=O
  i | i | i | i
> Cc1c(NC(=O)/C(C#N)=C/c2ccc(Cl)cc2)c(=O)n(-c2ccccc2)n1C
  i | i | i | i
> C[C@H]1CN([C@@H](C)CO)C(=O)c2cccc(NC(=O)Nc3ccc(C(F)(F)F)cc3)c2O[C@@H]1CN(C)Cc1ccncc1
  i | i | i | i
> Cc1cc(C)cc(N(CC(=O)Nc2c(C)n(C)n(-c3ccccc3)c2=O)S(C)(=O)=O)c1
  i | i | i | i
> Cc1noc(C)c1S(=O)(=O)N(C)C[C@H]1Oc2ccc(NC(=O)Nc3ccc(C(F)(F)F)cc3)cc2CC(=O)N([C@H](C)CO)C[C@H]1C
  i | i | i | i
> C[C@H]1CN([C@@H](C)CO)C(=O)Cc2cc(NC(=O)Cc3cn(C)c4ccccc34)ccc2O[C@@H]1CN(C)S(=O)(=O)c1cccs1
  i | i | i | i
> Nc1ncnc(NCc2cccnc2)c1[N+](=O)[O-]
  i | i | i | i
> C=C1CCC2C(C(=O)O)=COC(O[C@@H]3O[C@H](CO)[C@@H](O)[C@H](O)[C@H]3O)C12 (stereo partly specified)
  i | i | i | i
> CC1=C2[C@@H](c3ccccc3)OB(O)C[C@@H]2n2c(=O)n(-c3ccccc3)c(=O)n2C1
  i | i | i | i
> O=C(Nc1ccc(S(=O)(=O)Nc2ccccn2)cc1)c1cccnc1
  i | i | i | i
> Cc1noc(C)c1S(=O)(=O)N(C)C[C@H]1OCCCC[C@H](C)Oc2ccc(NC(=O)CCCN(C)C)cc2C(=O)N([C@@H](C)CO)C[C@@H]1C
  i | i | i | i
> C[C@@H]1CN([C@@H](C)CO)C(=O)c2cccc(NC(=O)NC3CCCCC3)c2O[C@@H]1CN(C)C(=O)Nc1ccc2c(c1)OCO2
  i | i | i | i
> COc1ccc2nc(SCC(=O)Nc3cccc(C(F)(F)F)c3)[nH]c2c1
  i | i | i | i
> O=[N+]([O-])c1ccc(-c2nc(-c3ccc(F)cc3)c(-c3ccncc3)[nH]2)cc1
  i | i | i | i
> CCn1c(SCC(=O)Nc2sc3c(c2C#N)CCCC3)nnc1-c1ccccc1O
  i | i | i | +
> C[C@@H]1CCCCO[C@@H](CN(C)C(=O)c2ccncc2)[C@H](C)CN([C@@H](C)CO)C(=O)c2cc(NS(=O)(=O)c3ccccc3)ccc2O1
  i | i | i | i
> COc1cccc(NC(=O)COc2ccccc2C(=O)O)c1
  i | i | i | i
> COc1ccc(C#Cc2ccc3c(c2)[C@]2(C(=O)N3)[C@H](c3ccc(O)cc3)N3[C@H](c4ccccc4)[C@H](c4ccccc4)OC(=O)[C@H]3[C@@H]2C(=O)N2CCCCCCC2)cc1
  + | + | i | nt
> O=C1Nc2ccccc2/C1=C\c1c(Cl)[nH]c2ccccc12
  i | i | i | i
> C[C@@H]1CN([C@@H](C)CO)C(=O)c2cc(NC(=O)Cc3ccccc3)ccc2O[C@@H](C)CCCCO[C@H]1CN(C)S(=O)(=O)c1ccc(Cl)cc1
  i | i | i | nt
> Cc1noc(C)c1S(=O)(=O)N(C)C[C@H]1Oc2ccc(NC(=O)Nc3ccccc3)cc2CC(=O)N([C@@H](C)CO)C[C@@H]1C
  i | i | i | i
> C[C@@H]1CCCCO[C@@H](CN(C)S(=O)(=O)c2cccs2)[C@H](C)CN([C@@H](C)CO)C(=O)c2cc(NC(=O)Cc3ccccc3)ccc2O1
  i | i | i | i
> C[C@H]1CN([C@@H](C)CO)C(=O)c2cccc(NC(=O)Nc3cccc4ccccc34)c2O[C@@H]1CN(C)S(=O)(=O)c1cccs1
  i | i | i | i
> O=C1CS(=O)(=O)C(c2ccccc2)N1c1ccccc1 (stereo unspecified)
  i | i | i | i
> C[C@@H]1CN([C@@H](C)CO)C(=O)CCCn2nncc2CO[C@H]1CN(C)S(=O)(=O)c1ccc(Cl)cc1
  i | i | i | i
> C[C@@H]1C[C@H]2[C@@H]3C[C@H](F)C4=CC(=O)C=C[C@]4(C)[C@@]3(Cl)[C@@H](O)C[C@]2(C)[C@H]1C(=O)COC(=O)C(C)(C)C
  i | i | i | i
> Cc1cc(NS(=O)(=O)c2cccc([N+](=O)[O-])c2)no1
  i | i | i | i
> COCc1ccccc1Cn1cnc2ccccc21
  i | i | i | i
> C[C@@H]1CN([C@@H](C)CO)C(=O)c2cccc(NS(C)(=O)=O)c2O[C@@H]1CN(C)C(=O)Nc1ccccc1
  i | i | i | i
> C[C@@H]1CCCCO[C@H](CN(C)C(=O)CCCN(C)C)[C@@H](C)CN([C@H](C)CO)C(=O)c2cc(NC(=O)Cc3ccccc3)ccc2O1
  i | i | i | i
> O=C1CSC(c2cccc([N+](=O)[O-])c2)N1c1ccccc1 (stereo unspecified)
  i | i | i | i
> Cc1ccc(CN(C)C[C@H]2OCc3cnnn3CCCC(=O)N([C@@H](C)CO)C[C@@H]2C)cc1
  i | i | i | i
> COc1ccc(C(=O)Nc2sc3c(c2C(N)=O)CCCC3)cc1OC
  i | i | i | i
> COC(=O)c1ccccc1NC(=O)CSc1nc(-c2ccc(F)cc2)cs1
  i | i | i | i

Only part of the results is shown; the hit share may differ from the screen's.
